Assay outcomes: PubChem BioAssay, National Center for Advancing Translational Sciences (NCATS)
HSD17B inhib: inhibitors of human HSD17B10 dehydrogenase; Q99714; recombinant HSD17B10, NADH fluorescence kinetic; many of its hits are not listed in these tables; Potency, µM (highest dose often 57.1 µM), for inactives: at the top dose activity change, negative = inhibition, hits mostly inhibitors; actives 7.6% (n = 75,000); AID 893; active means well fitted inhibition curve with a large enough effect; inconclusive means small, poorly fitted or top-dose-only effect; inactive means no such curve, though single readings can be large or run the other way;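 further: the protocol describes HADH2 (HSD17B10) and not the HSD17B4 of the title; nearly all actives have a fitted effect of over 70% in size; most hits overshoot -100% by far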
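20 nM HADH2, pH 9.0 Tris/Tween; cpd preinc 15 min RT; start w/ 1 mM NAD+ + 90 uM b-hydroxybutyryl-CoA; kinetic fluor ex360/em450 q30s x 4 min; delta last-first.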
* = called active by the depositor; ? = inconclusive; [ ] = another dose, or the depositor's remark. On the % scale 0 is the no-effect control and ±100 the full control effect; potency means the concentration at half of the fitted maximal effect.

mol,HSD17B inhib
O=C(CSc1ncnc2c1oc1ccccc12)c1cccs1,2%
O=C(C1CCC(C(=O)N2CCCC2)CC1)N1CCCC1 (stereo unspecified),6%
CCn1cc(C(=O)N=c2sc3ccccc3n2C)c(=O)c2ccc(C)nc21,11%
Cc1ccc(OCC(O)CN2CCN(CC(O)COC(C)C)CC2)c(C(C)(C)C)c1 (stereo unspecified),-1%
Nc1nc(N)c(CCCCc2ccccc2)c(N)n1,2%[11.4 µM]
COC(=O)C1CCN(S(C)(=O)=O)CC1,-15%
CC12CCC(C(=O)NCCCn3ccnc3)(OC1=O)C2(C)C (stereo unspecified),21%
COc1ccc(CCNC(=O)c2cc3ccccn3n2)c(OC)c1OC,10%
CCOC(=O)c1c(-c2ccsc2)csc1N,?
CC(C)OCCCN1C(=O)c2ccccc2C1C(=O)NC1CCCCC1 (stereo unspecified),2%
Cn1c(CN2CCCC2)nc2cc(NC(=O)COc3ccc(Cl)cc3)ccc21,11%
CCCC(=O)OCC(=O)Nc1cc(C(C)(C)C)nn1-c1ccccc1,-1%
O=C(O)c1cccc(N2C(=O)CSC2c2c(F)cccc2Cl)c1 (stereo unspecified),-3%
CS(=O)(=O)NCCSCc1c(F)cccc1Cl,8%
O=C(CCCCCn1c(=O)[nH]c2ccsc2c1=O)N1CCN(C2CCCCC2)CC1,6%

(list continues)
mol,HSD17B inhib
Cc1ccc2oc(=O)n(CC(=O)O)c2c1,1%
CCSc1nc2nc(C)cc(C)n2n1,-19%
O=C(c1ccc(S(=O)(=O)N2CCCC2)cc1)N1CCCc2ccccc21,-3%
Cc1ccc(-n2nnc3c(=O)n(CC(=O)NCC4CCCO4)cnc32)cc1 (stereo unspecified),12%
OCCNc1ncnc2nc[nH]c12,-1%[11.4 µM]
Cc1nnc(-c2ccccc2)c[n+]1[O-],5%
Cc1cccc(NC(=O)CNc2cc(C)ccc2C)c1,-2%
Cc1cccc(N=C(N2CCOCC2)P(=O)(N2CCOCC2)N2CCOCC2)c1,7%
CC(C)(C)NS(=O)(=O)c1ccc2nc(NC(=O)Cc3cccs3)sc2c1,-3%
O=C(Nc1c(Cl)cccc1Cl)C1CCC1,2%
O=C(CC(SCCO)c1ccc(F)cc1)c1ccco1 (stereo unspecified),-1%
CCC1=C(OC(=O)N(CC)CC)N2C(=O)OC(=NCC(=O)OC)[C@]2(Cc2ccccc2)[C@H]2C1=CC[C@H]1C(=O)NC(=O)[C@H]12,-2%
O=C(Cn1nnc(-c2cccc(C(F)(F)F)c2)n1)NC1CCCC1,9%
O=C(O)c1[nH]c2c([N+](=O)[O-])cc([N+](=O)[O-])cc2c1C(=O)O,-4%[11.4 µM]
COc1ccccc1-n1c(=O)oc2ccc(Cl)cc2c1=O,38%[activator]

(list continues)
mol,HSD17B inhib
O=C(Cn1cccc1)N1CCN(C(c2ccccc2)c2ccccc2)CC1,-15%
CCCCNC(=O)C1c2cc(OC)c(OC)cc2C(=O)N(C)C1c1ccc(OC)cc1 (stereo unspecified),-4%
Cc1cc(C)nc(Sc2nc(C)nc3c2oc2ccccc23)n1,-6%
CN(C)c1nc(OCC(=O)NC(C)(C)C)nc(N(C)C)n1,16%
Cc1cccc(NC(=O)C2CCCN(C(=O)Nc3ccccc3)C2)c1C (stereo unspecified),3%
COc1cccc(C(=O)N(Cc2ccco2)Cc2cc3cccc(C)c3[nH]c2=O)c1,?
COc1ccccc1CNC(=O)C1CCN(S(C)(=O)=O)CC1,8%
COC(=O)CCCCC1SCC(NC(=O)OC)C1NC(=O)OC (stereo unspecified),8%
CCc1ccc(-c2nc(CN3CCCC(C(=O)NCCc4ccc(OC)c(OC)c4)C3)c(C)o2)cc1 (stereo unspecified),-5%
COc1ccc(NC(=O)CSc2nc3c(c(=O)[nH]2)CCC3)cc1OC,-3%
COc1ccc(NC(=O)CSc2nnc(-c3ccccn3)n2N)cc1,6%
COC(=O)CCC(=O)Nc1ccc(C)cc1OC(=O)CCC(=O)OC,-6%
CC(=O)c1cccc(NC(=O)c2ccc(NS(C)(=O)=O)cc2)c1,-8%
C[N+](C)(C)CCCSc1nc2ccccc2[nH]1,5%[11.4 µM]
CCO[C@H](c1cc(OC)cc([N+](=O)[O-])c1OC)[C@H](C)/C=C\CC(=O)OC,6%[11.4 µM]

Additional entries:
mol,HSD17B inhib
COc1ccc(-c2noc(-c3ccccc3Cl)n2)cc1OC,-24%
COC(=O)CCSc1nccn1Cc1ccccc1,5%
COC(=O)CSc1nc(C(C)C)nc2ccccc12,4%
O=C(Cn1c(-c2ccc(Cl)cc2)noc1=O)N1CCN(c2ccccc2F)CC1,21%
O=C(O)CCCC(=O)NCCCCc1ccccc1,-1%
CN(C)Cc1ccccc1-c1cc(N(C)C)ncn1,-3%
CCC(C)(C)NC(=O)C(c1cccn1C)N(C(=O)Cn1nnc2ccccc21)c1ccc(F)cc1 (stereo unspecified),8%
CCOC(=O)CNC(=O)c1cnn2cccnc12,?
Cc1cc(OCC(=O)NCc2nc(-c3ccccc3)no2)c(C)cc1Br,1%
CC(=O)NCC(=O)N(c1ccccc1)C1(C(=O)NC2CCCCC2)CCCCC1,-10%
COc1ccccc1-n1c(SCC(=O)N2CCCCC2)nnc1-c1ccccc1O,2%
CN(C(=O)c1ccc2c(=O)n3c(nc2c1)CCCCC3)c1ccccc1,-1%
COc1ccc(C2(C(=O)Nc3ccc(C(=O)N4CCOCC4)cc3)CCOCC2)cc1,7%
O=C(O)C1CSC2(c3ccc4c(c3)OCCO4)CCC(=O)N12 (stereo unspecified),-13%
CC1(C)CC(=O)C=C(Nc2ccc(S(N)(=O)=O)cc2)C1,-19%

Continuation:
mol,HSD17B inhib
CNc1csc(C)c(C)c1=O,-2%
CSCCC(NC(=O)C1CCC(C)CC1)C(=O)NCCN1CCOCC1 (stereo unspecified),23%
Cc1ccc2oc(-c3ccccc3)c(O)c(=O)c2c1,6%
O=S(=O)(Nc1ccc(N2CCCCC2)cc1)c1cccc2cccnc12,14%
Cc1cccc(N2CC(C)Cn3c2nc2c3c(=O)n(CC(=O)OCc3ccccc3)c(=O)n2C)c1 (stereo unspecified),?
N=c1nc(SCCC(=O)O)ss1,-1%
CCS(=O)(=O)c1ccc2oc(SCC(=O)NCCC3=CCCCC3)nc2c1,5%
COc1cc(OC)c(OC)cc1CN1CCCC(C(=O)N2CCCCC2)C1 (stereo unspecified),11%
CCOC(=O)N1CCC2(CC1)C(C(=O)C13CC4CC(CC(C4)C1)C3)C2(C#N)C#N (stereo unspecified),-4%
C[N+](C)(C)c1ncnc2c1ncn2[C@@H]1CCCCO1,-2%[11.4 µM]
COc1ccccc1NC(=O)CC(=O)CSc1nnc(-c2ccc(C)cc2)n1C,-6%
CC1=C(C(=O)Nc2ccccc2)C(c2ccccc2)N2C(=O)CSC2=N1 (stereo unspecified),7%
COc1ccccc1CNc1ncncc1-c1cccc(NS(C)(=O)=O)c1,-9%
CC(=O)C1=C(O)C(=O)N(C2CCCCC2)C1c1ccccc1 (stereo unspecified),-19%
CN(C)CCN1C(=O)C(O)=C(C(=O)c2cc3ccccc3o2)C1c1ccc(N(C)C)cc1 (stereo unspecified),-10%

Individual results from above.
Under HSD17B inhib, CSCCC(NC(=O)C1CCC(C)CC1)C(=O)NCCN1CCOCC1 (stereo unspecified) shows 23%
Under HSD17B inhib, CNc1csc(C)c(C)c1=O shows -2%

Additional structures follow:
mol,HSD17B inhib
CC1CCCCC1NC(=O)C1CCN(S(=O)(=O)N2CCC3(CC2)OCCO3)CC1 (stereo unspecified),0%
CN(CC(=O)NCCc1ccccc1)S(=O)(=O)c1cccs1,1%
C/C(Cl)=C\Cn1c(NCCCn2ccnc2)nc2c1c(=O)n(C)c(=O)n2C,13%
COc1cc(O)c2c(O)c3c(c4c2c1[C@@]1(C4)C(C)=CCCC1(C)C)[C@H](O)[C@@]1(O)CC(=O)C(C(N)=O)=C(O)[C@]1(O)C3=O,?
CC1CCN(S(=O)(=O)c2ccc(-c3nnc(SCc4cccnc4)o3)cc2)CC1,-9%
CCOc1ccc2nc(NC(=O)CSc3nc4c(c(=O)n(C)c(=O)n4C)n3C(C)C)sc2c1,-1%
Clc1cccc(Cl)c1COc1ccncc1,10%
CC1CCN(c2oc(Cc3cccc4ccccc34)nc2C#N)CC1,-13%
Cc1ccc(C(C)C)cc1C(=O)CC1(O)C(=O)N(C)c2ccccc21 (stereo unspecified),-6%
Cc1cccc(N(CC(=O)NCc2ccc3c(c2)OCO3)C(=O)CCC(=O)Nc2ccccn2)c1,4%
CC(C)(C)c1ccc(NS(=O)(=O)c2ccc(N)cc2)cc1,10%[11.4 µM]
Cc1nc2ncnn2c(C)c1CCC(=O)N1CCN(c2ccccn2)CC1,-26%
Nc1cc(=O)[nH]c(SCc2nc3ccccc3n2Cc2ccccc2)n1,1%
COC(=O)CN(c1nc(C)cc(OC)n1)S(=O)(=O)c1ccc(C)cc1,-7%
C[C@]12CCC3c4ccc(OS(=O)(=O)O)cc4CCC3C1CCC2=O (stereo partly specified),6%

(list continues)
mol,HSD17B inhib
COC(=O)[C@@H]1[C@@H](O)[C@]2(O)c3ccccc3O[C@]2(c2ccccc2)[C@H]1c1ccccc1,7%[11.4 µM]
O=C(CSc1ncn[nH]1)NCCCc1ccccc1,-4%
CC1Cc2ccccc2N1Cc1nc2scc(-c3cccs3)c2c(=O)[nH]1 (stereo unspecified),-19%
COc1cc2c(C(=O)NC3CCCCCC3)cn(C)c(=O)c2cc1OC,4%
COc1ccc(CNC(=O)C2CCN(S(=O)(=O)c3ccc(-c4nn[nH]n4)cc3)CC2)cc1,8%
CC(=O)Nc1ccc(S(=O)(=O)NCc2cn3c(C)csc3n2)cc1,6%
Cc1nc2cnc(N3CCOCC3)nc2n(Cc2cccs2)c1=O,?
CCOC(=O)N1CCN(C(=O)CSc2nnc(Cc3cccn3C)n2CCc2ccccc2)CC1,5%
COc1cc(OC)c(NC(=O)c2ccoc2C)cc1Cl,2%
O=C(NCc1ccccc1F)C1CCN(C(=O)NCc2ccccc2)CC1,5%
CCOC(=O)c1ccc(CSc2nnc(-c3ccncc3)n2N)cc1,3%
Cn1c(=O)n(CCc2ccccc2)c(=O)c2c1nc1n2CCCN1CCc1ccccc1,-26%
Cc1noc(C)c1C(=O)N1CCC2(CCCN(c3ccccn3)C2)CC1,25µM*
COc1ccccc1Cc1nc(-c2ccc(C)cc2)no1,0%
CO[C@@H]1COC(=O)CCC[C@@H](C)[C@H](OC)COC(=O)[C@H](Cc2ccccc2)NC(=O)C/C=C\[C@H]1C,-1%[11.4 µM]

No new results follow: an excerpt of the list.
mol,HSD17B inhib
Cc1nc2cnc(N3CCOCC3)nc2n(Cc2cccs2)c1=O,?
CCOC(=O)N1CCN(C(=O)CSc2nnc(Cc3cccn3C)n2CCc2ccccc2)CC1,5%
COc1cc(OC)c(NC(=O)c2ccoc2C)cc1Cl,2%
O=C(NCc1ccccc1F)C1CCN(C(=O)NCc2ccccc2)CC1,5%
CCOC(=O)c1ccc(CSc2nnc(-c3ccncc3)n2N)cc1,3%
Cn1c(=O)n(CCc2ccccc2)c(=O)c2c1nc1n2CCCN1CCc1ccccc1,-26%

Additional records follow.
mol,HSD17B inhib
C=C(C)Cn1c(C(C)NC(=O)CCC)nc2ccccc21 (stereo unspecified),9%
CC1=CC(=O)C2=C(C)CCC3C(C)C(=O)OC3C12 (stereo unspecified),-6%
N=C1C(c2ccc(Br)cc2)=C(O)C2CCc3ccccc3N12 (stereo unspecified),1%
COc1ccc(CCC(=O)Nc2ccc(-c3noc(-c4ccc(OC)c(OC)c4)n3)cc2)cc1,6%
Cc1cc(C(=O)COC(=O)c2csc3c2CCCC3)c(C)n1C,-7%
COc1ccccc1C1(O)CC2CCC(C1)N2S(=O)(=O)c1ccc(C(C)=O)cc1 (stereo unspecified),9%
N#Cc1cccc(C(c2nnnn2CCc2ccccc2)N2CCN(C3CCCCC3)CC2)c1 (stereo unspecified),11%
CCOc1ccccc1CN1CCN(S(=O)(=O)CC)CC1,4%
CCOC(=O)c1cncc(NC(=O)c2ccccc2)c1,-1%
COc1ccc(/C=N/n2c(SC)nnc2-c2ccccc2)c(OC)c1OC,-13%
CCC(c1nnnn1C1CCCC1)N(Cc1cccs1)Cc1cc2cccc(C)c2[nH]c1=O (stereo unspecified),?
O=C(CCCn1c(SCC(=O)c2ccc(Cl)cc2)nc2ccccc2c1=O)NCc1ccco1,?
O=c1c(-c2cccc(F)c2)nc2cncnc2n1Cc1ccccc1,?
O=C1/C(=C/Nc2ccc3c(c2)OCO3)CCc2ccccc21,-25%
COc1cc2c(C(=O)NCCCN3CCN(c4cccc(Cl)c4)CC3)cn(C)c(=O)c2cc1OC,1%

Carrying on.
mol,HSD17B inhib
CC(C)(C)Sc1ccc(N)nc1,?
Cc1ccc(-n2cccc2C(=S)N=P(N(C)C)(N(C)C)N(C)C)cc1,-17%
O=C(O)c1ccccc1NS(=O)(=O)c1ccc(F)c(Cl)c1,-3%
CCOC(=O)N1CCN(c2cc(C)c(C(C)=O)cc2F)CC1,-9%

An excerpt. The share of hits here may be higher or lower than overall.
